Source: PubChem BioAssay (Vanderbilt University)
GIRK2 act: activators of human GIRK2 potassium channels | HEK293-GIRK2 thallium flux, Thallos fluorescence | AID 1259325, 2017 | G protein-activated inward rectifier potassium channel 2 (Homo sapiens), P48051 | 63,000 tested, 0.05% active | calls only for hits at 25 µM;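 active = among the strongest 0.2% of first-round signals and kept after retests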;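 note: first round at about 10 µM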
Target sequence (P48051 whole entry, looked up): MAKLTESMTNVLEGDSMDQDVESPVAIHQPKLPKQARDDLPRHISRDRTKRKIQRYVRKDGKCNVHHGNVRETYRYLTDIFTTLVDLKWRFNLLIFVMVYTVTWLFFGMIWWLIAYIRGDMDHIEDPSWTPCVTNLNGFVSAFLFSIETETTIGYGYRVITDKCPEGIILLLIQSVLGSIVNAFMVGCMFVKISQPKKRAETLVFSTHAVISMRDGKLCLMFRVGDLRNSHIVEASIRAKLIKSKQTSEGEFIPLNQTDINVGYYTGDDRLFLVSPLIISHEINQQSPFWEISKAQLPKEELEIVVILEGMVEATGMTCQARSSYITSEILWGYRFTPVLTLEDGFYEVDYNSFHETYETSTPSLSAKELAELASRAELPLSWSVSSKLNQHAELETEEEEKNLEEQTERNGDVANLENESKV
Calls only. A portion of the library; rates above refer to the full screens.

What do the screens show for `CN(CCO)CC1COCCN1C(=O)Cc1cccc2ccccc12` (stereo not drawn)?
GIRK2 act: inactive

What do the screens show for `C=C(C)CN1CC[C@]23c4c5ccc(O)c4O[C@H]2c2[nH]c4ccccc4c2C[C@@]3(O)C1C5`?
GIRK2 act: inactive

What do the screens show for `O=C(COc1ccc(Cl)cc1)N1CCN(CC(F)(F)F)CC1`?
GIRK2 act: inactive

What do the screens show for `CNCC(O)c1ccc(O)cc1` (stereo not drawn)?
GIRK2 act: inactive

Results for O=c1cccc2n1CC1CC2CN(c2ncnc3[nH]ncc23)C1 (stereo not drawn) ?
GIRK2 act: inactive

How did O=C(Cc1cccc2ccccc12)N1CCN(Cc2nnnn2-c2cccc(F)c2)CC1 do in these assays?
GIRK2 act: inactive

How did CS(=O)(=O)NCC#CCN1CCOCC1 do in these assays?
GIRK2 act: inactive

Results for COc1ccc2c(c1)c(CC(=O)NCCCCNC(=O)CCC(=O)O[C@@H]1c3cc4c(cc3[C@H](c3cc(OC)c(OC)c(OC)c3)[C@@H]3C(=O)OCC13)OCO4)c(C)n2C(=O)c1ccc(Cl)cc1 (stereo partly drawn) ?
GIRK2 act: inactive

Results for CCCCCNC(=O)c1cc2cccnc2n(Cc2ccc(F)cc2)c1=O ?
GIRK2 act: inactive

What do the screens show for `CN1CCCCC1Cn1cc(C(=O)c2cc([N+](=O)[O-])ccc2I)c2ccccc21` (stereo not drawn)?
GIRK2 act: inactive

Part of the list above in order of count of non-hydrogen atoms, rising.
What do the screens show for `CNCC(O)c1ccc(O)cc1` (stereo not drawn)?
GIRK2 act: inactive

Results for O=c1cccc2n1CC1CC2CN(c2ncnc3[nH]ncc23)C1 (stereo not drawn) ?
GIRK2 act: inactive

What do the screens show for `C=C(C)CN1CC[C@]23c4c5ccc(O)c4O[C@H]2c2[nH]c4ccccc4c2C[C@@]3(O)C1C5`?
GIRK2 act: inactive

How did O=C(Cc1cccc2ccccc12)N1CCN(Cc2nnnn2-c2cccc(F)c2)CC1 do in these assays?
GIRK2 act: inactive

Further records.
Results for O=C(CCS(=O)(=O)c1ccccc1)N1CC2CC(C1)c1cccc(=O)n1C2 (stereo not drawn) ?
GIRK2 act: inactive

Results for Cc1nc(C)c(CC(=O)N2CCN(Cc3ccsc3)CC2)s1 ?
GIRK2 act: inactive

How did Cc1noc(C)c1CN1CCN(C(=O)Cc2cccs2)CC1 do in these assays?
GIRK2 act: inactive

What do the screens show for `CC(=O)N[C@H]1C(O[C@@H]2OC(CC(O)[C@H]3O[C@@H](n4ccc(=O)[nH]c4=O)[C@H](O)[C@@H]3O)[C@H](O)[C@H](O)[C@H]2NC(=O)/C=C/CCCCCCCCCCC(C)C)O[C@H](CO)[C@@H](O)[C@@H]1O` (stereo partly drawn)?
GIRK2 act: inactive

Results for Cc1cccc(C)c1NC(=O)c1cc2cccnc2n(Cc2ccc(F)cc2)c1=O ?
GIRK2 act: inactive

What do the screens show for `Cc1ncc2n1-c1ccc(Cl)cc1C(c1ccccc1F)=NC2`?
GIRK2 act: inactive

How did O=C(NCCCc1ccccc1)c1cc2cccnc2n(Cc2ccc(F)cc2)c1=O do in these assays?
GIRK2 act: inactive

How did CCOc1ccc(OCC(=O)N2CCN(Cc3nc(C)cs3)CC2)cc1 do in these assays?
GIRK2 act: inactive

What do the screens show for `CCCCC/C=C\C/C=C\C/C=C\C/C=C\CCCC(=O)NCCc1ccc(O)c(O)c1`?
GIRK2 act: inactive

How did O=C1CN=C(c2ccccc2)c2cc([N+](=O)[O-])ccc2N1 do in these assays?
GIRK2 act: inactive

How did CC(C)Sc1ccc(CC(=O)N2CCN(CC(F)(F)F)CC2)cc1 do in these assays?
GIRK2 act: inactive

A portion from the list above, as a working copy:
What do the screens show for `CCCCC/C=C\C/C=C\C/C=C\C/C=C\CCCC(=O)NCCc1ccc(O)c(O)c1`?
GIRK2 act: inactive

How did O=C1CN=C(c2ccccc2)c2cc([N+](=O)[O-])ccc2N1 do in these assays?
GIRK2 act: inactive

How did CC(C)Sc1ccc(CC(=O)N2CCN(CC(F)(F)F)CC2)cc1 do in these assays?
GIRK2 act: inactive
